MLL AF4-AF9 inh = MLL-AF4/AF9 protein interaction inhibition; P42568; AlphaScreen, biotin-AF4 peptide binding to FLAG-AF9; inhibition, % at 10 µM; actives 0.47% (n = 350,000);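 active = every replicate reaching a set inhibition limit, whatever the replicate mean, cut at about 25% in these data; inconclusive = mean inhibition reaches that limit but some replicates miss it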;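 note: 0% = plate neutral control median and 100% = total signal loss; the record names both 10 and 1 µM as test concentration; the first replicate is given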
Target sequence (P42568 whole entry, looked up): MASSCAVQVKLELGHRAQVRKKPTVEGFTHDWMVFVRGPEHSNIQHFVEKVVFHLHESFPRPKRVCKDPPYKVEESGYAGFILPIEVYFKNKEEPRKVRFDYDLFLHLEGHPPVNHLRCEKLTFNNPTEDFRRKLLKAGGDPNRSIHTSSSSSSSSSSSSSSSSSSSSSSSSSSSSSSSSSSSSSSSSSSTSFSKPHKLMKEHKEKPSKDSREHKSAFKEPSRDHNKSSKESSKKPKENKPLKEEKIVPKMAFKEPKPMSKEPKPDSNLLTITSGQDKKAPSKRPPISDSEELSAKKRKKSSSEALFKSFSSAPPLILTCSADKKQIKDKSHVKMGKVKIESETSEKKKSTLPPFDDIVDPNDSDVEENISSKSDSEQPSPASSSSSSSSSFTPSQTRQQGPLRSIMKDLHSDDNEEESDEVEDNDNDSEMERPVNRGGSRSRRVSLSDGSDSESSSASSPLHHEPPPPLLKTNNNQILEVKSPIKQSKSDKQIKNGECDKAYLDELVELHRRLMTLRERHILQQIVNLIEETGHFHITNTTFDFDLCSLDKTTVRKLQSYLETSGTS
rRNA inh HTS = inhibits bacterial ribosomal RNA function over humanized ribosomes; E. coli WT GFP vs humanized-ribosome RFP mutants, fluorescence, 24 h; hits give low values; DMSO median 0, no signal -100; GFP signal change (wild-type ribosome), % (test concentration not listed); actives 1.6% (n = 350,000);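 active = significant combined selectivity score with lowered wild-type GFP, culture density cut under 30%, mutant RFP and density less affected; inactive = any of these conditions unmet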; note: one replicate is shown; some compounds called inactive have numbers as strong as hits
FGF22 binding = binders of recombinant human FGF22 by thermal shift. Q9HCT0. SYPRO orange fluorescence; percent of sucrose octasulfate shift, DMSO zero. actives 1.5% (n = 340,000). AID 651658. calls only at 9.99 µM;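 active = melting point raised past a set limit in the mean and every replicate; inconclusive = no clear call; three in four hits are not shown here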
Vif TR-FRET = inhibitors of Vif binding to APOBEC3G peptide, primary screen, biochemical, TR-FRET, GST-Vif 1-94, biotin-A3G peptide, dose response retest (AID 1117319); inhibition, %, or IC50 in µM where a hit was titrated; actives 0.57% (n = 260,000); TR-FRET GST-Vif / biotin-A3G peptide binding; higher % means a stronger effect; test concentration not given here; strong numbers were not always called active;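 active = above the screen mean plus three standard deviations and confirmed in dose response; inconclusive = results disagree or hit not tested in dose response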;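 note: Vif residues 1-94 fused to GST binding biotinylated APOBEC3G peptide 110-148; 0% = full assay without inhibitor and 100% = GST in place of GST-Vif; retest series ran down from 100 µM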
ALR inh = blocks human ALR sulfhydryl oxidase activity; P55789; purified ALR, DTT oxidation, H2O2 HRP-luminol luminescence; inhibition, % (test concentration not listed); actives 3.8% (n = 290,000);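 active = mean and each replicate at 75% or more; inconclusive = only one of the two met; inactive = neither met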;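 note: stock transfer was 7.5 nL into about 7.5 µL; 0% = neutral wells and 100% = wells with inactivated enzyme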
Ecoli growth = inhibitors of Escherichia coli growth; OD600, 23 h; hits give low values; OD600 absorbance (no concentration beside the values); actives 0.21% (n = 330,000); AID 1053175;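 active = OD600 absorbance below the run mean of sample wells minus 3.6 SD, in any replicate, cut at about 0.56 in these data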;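 note: stock transfer was 300 nL into about 60 µL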
HNF4A DNA FP = change in binding of human HNF4 alpha to DNA; P41235; HNF4a-FITC DNA binding, fluorescence polarization, 1 h; activity change, % at 10 µM; actives 0.3% (n = 360,000); in the data active = activity change above about 30%, passing the limit was not always enough;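 note: controls were the assay level and a saturating level of protein; the project sought stronger binding though the title names inhibitors; some compounds called inactive have numbers as strong as hits; positive values seem to mean higher polarization but the record does not say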
Target sequence (P41235 whole entry, looked up): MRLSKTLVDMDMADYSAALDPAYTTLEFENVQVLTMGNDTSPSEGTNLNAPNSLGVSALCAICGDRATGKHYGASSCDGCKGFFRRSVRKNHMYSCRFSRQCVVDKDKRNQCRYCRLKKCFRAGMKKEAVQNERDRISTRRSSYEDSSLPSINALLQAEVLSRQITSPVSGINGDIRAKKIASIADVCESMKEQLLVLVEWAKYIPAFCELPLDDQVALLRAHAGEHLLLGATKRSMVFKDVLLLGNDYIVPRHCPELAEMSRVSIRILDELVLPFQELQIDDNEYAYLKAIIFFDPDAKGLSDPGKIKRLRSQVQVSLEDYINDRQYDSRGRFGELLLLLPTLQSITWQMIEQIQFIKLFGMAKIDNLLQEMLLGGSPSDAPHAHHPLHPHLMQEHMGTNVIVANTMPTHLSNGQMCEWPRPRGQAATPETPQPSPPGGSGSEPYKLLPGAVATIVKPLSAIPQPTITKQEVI
rRNA inh HTS OD600 = further read-out of rRNA inh HTS, marked with its call; OD600 change, %; measured here: OD600 growth;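 optical density of the mix in the first replicate; 0 = DMSO median and -100 = no signal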
rRNA inh HTS RFP = second read-out of rRNA inh HTS, no call of its own (marks repeat the call); RFP signal change, %; measured here: RFP humanized mutant strains;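 first replicate; 0 = DMSO median and -100 = no signal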
Starred values were filed as active, the others as inactive; i = inactive; u = inconclusive; x = not tested or not shown.

entry | compound | rRNA inh HTS RFP | FGF22 binding | Vif TR-FRET | MLL AF4-AF9 inh | rRNA inh HTS OD600 | Ecoli growth | HNF4A DNA FP | rRNA inh HTS | ALR inh
1 | O=C(O)c1ccc2c(=O)n3c(nc2c1)/C(=C/c1ccc(Cl)cc1Cl)CC3 | -3.6 | i | -2.7% | -0.2 | 5.0 | 0.666 | -0.4 | -1.8 | x
2 | O=C(COc1ccc([N+](=O)[O-])cc1)Nc1ccc(C(=O)Nc2ccccc2C(=O)O)cc1 | 0.5 | i | x | -0.4 | 1.1 | 0.669 | -0.5 | 1.3 | 7.2
3 | COc1ccc(-c2[nH]ncc2CN2CCC(N3CCSCC3)CC2)c(F)c1 | 0.2 | i | -4.8% | 1.0 | 11.9 | 0.659 | 0.9 | 19.4 | -21.4
4 | COc1ccc(NC(=O)NC(C)(C(F)(F)F)C(F)(F)F)cc1 | x | x | -1.3% | x | x | 0.688 | 2.6 | x | x
5 | Cc1noc(C)c1NC(=O)N(C)C[C@@H]1Oc2ccc(NC(=O)NC3CCCCC3)cc2C(=O)N([C@H](C)CO)C[C@H]1C | 0.0 | i | x | -4.7 | 20.9 | x | x | 2.3 | x
6 | O=C(CO/N=C1\CCCc2nonc21)Nc1ccc(Br)cc1 | x | x | -2.2% | x | x | x | 6.8 | x | -4.5
7 | C[C@H](O)C#Cc1ccc2c(c1)O[C@@H](CN(C)C(=O)Nc1ccccc1)[C@@H](C)CN([C@H](C)CO)S2(=O)=O | -2.5 | i | x | -1.3 | -8.8 | x | x | -0.4 | x
8 | O=C(COC(=O)c1ccccc1OCc1ccccc1Cl)NC1CC1 | x | x | -12.3% | x | x | 0.727 | 0.9 | x | -33.1
9 | CCNc1nc(OCCNS(=O)(=O)c2cc(C)ccc2C)nc(N(C)C)n1 | x | x | 70.7% | x | x | 0.666 | 8.1 | x | -0.9
10 | CC(C)Oc1ccc(N2CC(C(=O)Nc3ccccn3)CC2=O)cc1 (centres undefined) | 1.1 | i | x | -1.3 | 1.1 | 0.66 | 1.2 | 9.4 | -1.6
11 | COC(=O)c1sccc1NC(=S)N1CCC(C)CC1 | x | x | -2.5% | x | x | 0.718 | -1.1 | x | 28.7
12 | CCn1cc(C(=O)NN)c(=O)c2cc(F)c(NC3CCCCC3)cc21 | -1.0 | i | 1.9% | 1.9 | -21.6 | 0.655 | -1.8 | -6.8 | x
13 | CN(C)c1ccc(N=Cc2nc(-c3ccccc3)oc2O)cc1 | x | x | 8.8% | x | x | 0.671 | -57.5 | x | 72.9
14 | COc1ccc(-c2nc(SCC(=O)N3CCCC3)n[nH]2)cc1 | -0.5 | i | 18.7% | 2.5 | 16.1 | 0.656 | 2.3 | 4.3 | -0.2
15 | O=C(NNC(=O)c1cccc(S(=O)(=O)Nc2ccc(Cl)cc2)c1)c1ccc(=O)[nH]c1 | 1.7 | i | 0.6% | -0.3 | 2.3 | 0.69 | -0.3 | 12.6 | -5.3
16 | CC1=C(C(=O)OCC2CCCO2)C(c2ccsc2)C2=C(CC(C)(C)CC2=O)N1 (centres undefined) | -0.5 | i | 8.7% | 0.4 | -13.5 | 0.66 | 1.1 | -16.4 | -4.6
17 | CCOC(=O)CNC(=O)CSc1nnc(-c2ccccc2OC)n1CC | x | x | 1.8% | x | x | 0.736 | -1.6 | x | -1.0
18 | C[C@@H]1CCCCO[C@H](CN(C)Cc2ccncc2)[C@H](C)CN([C@@H](C)CO)C(=O)c2cc(NS(C)(=O)=O)ccc2O1 | -0.7 | i | x | -2.6 | -3.3 | x | x | 0.5 | x
19 | Cc1ccc(S(=O)(=O)NC(=O)C2(C)CCN2C(=O)Cc2cccs2)cc1 (centres undefined) | 3.0 | i | x | -5.8 | 22.9 | x | -1.5 | 11.9 | x
20 | COc1ccc(Cc2nc3ccc(C(=O)N(C)Cc4nccs4)cc3o2)cc1OC | -1.2 | i | -4.3% | -15.0 | 9.4 | 0.686 | 4.1 | 0.6 | 8.1
21 | CCOc1ccccc1-c1nnc(CS(=O)(=O)c2ccccc2)o1 | 0.0 | i | x | 0.2 | -12.2 | 0.65 | -0.2 | -3.3 | 5.9
22 | COc1ccc(S(=O)(=O)N2CCN(C(=O)c3ccccc3Cc3ccccc3)CC2)cc1OC | 4.9 | i | -7.9% | 0.2 | -21.5 | x | 0.1 | -7.4 | x
23 | CC(=O)c1cccc(NC(=O)N2CCCC2C(=O)NCc2ccc(F)cc2)c1 (centres undefined) | x | x | -0.5% | x | x | 0.732 | -1.6 | x | -1.1
24 | NC[C@H](O)c1ccc(O)c(O)c1 | -4.6 | i | x | -1.7 | -28.7 | x | 3.2 | -24.6 | 65.1
25 | COc1ccc2c3c([nH]c2c1)[C@@H](CO)N(C(=O)CN(C)C)CC31CCN(CC2CCCC2)CC1 | -0.2 | i | x | 1.0 | 8.9 | x | x | 2.7 | x
26 | CCOc1ccc(CN2CCNC(=O)C2CC(=O)N(C)CC2CCOCC2)cc1 (centres undefined) | 3.2 | i | x | 1.4 | 19.8 | x | -5.0 | 19.4 | -14.3
27 | Cc1cc(C)c(CN2CCN(C(=O)Cn3ccc(NC(=O)OCc4ccccc4)nc3=O)CC2)c(C)c1 | -0.9 | i | x | -5.6 | -0.1 | 0.653 | 0.3 | 8.0 | -7.6
28 | Cc1cccc(CCNCc2c(C(=O)O)c(C)n(-c3ccccc3)c2C)c1 | 8.4 | i | 5.9% | 9.9 | 13.5 | 0.691 | 0.0 | 15.1 | -3.4
29 | Cc1nn(CC(=O)Nc2ccc3c(c2)nc(CCN2CCCCC2)n3C)c(=O)c2ccccc12 | 7.2 | i | 12.3% | 4.4 | 4.2 | 0.651 | 4.9 | -10.7 | x
30 | Cc1c(C(=O)NCCc2ccccc2)oc2ccccc12 | -2.3 | i | x | -5.1 | -48.0 | 0.674 | 0.8 | -25.4 | 3.7
31 | C/C(=N\NC(=S)Nc1cc(S(=O)(=O)N2CCOCC2)ccc1Cl)c1ccc(N2CCOCC2)cc1 | -10.9 | i | 7.5% | 3.2 | -14.7 | x | 6.8 | -4.6 | x
32 | C=CCC(O)(CC=C)CNC(=O)c1ccc(OC)c(OC2CCN(C(C)=O)CC2)c1 | 1.4 | i | -11.8% | -1.9 | 4.3 | 0.695 | 0.1 | 1.5 | 4.4
33 | CCOC(=O)C1CCCN(S(=O)(=O)CCNC(=O)c2cccc(OC)c2)C1 (centres undefined) | 0.3 | i | -3.9% | 8.1 | 0.7 | 0.662 | 0.9 | 3.3 | -1.1
34 | Oc1cccc(C=NCc2ccccc2)c1 | x | x | -4.5% | x | x | 0.732 | -3.8 | x | -16.9
35 | COc1ccc(N2CCN(C(CNC(=O)C(C)C)c3ccc4c(c3)OCO4)CC2)cc1 (centres undefined) | -2.7 | i | x | -5.4 | 17.6 | 0.721 | 8.2 | 13.9 | 86.3*
36 | Cc1ccc2nc3c(nc2c1C)C(O)=C3O | -2.0 | i | u | -1.7 | 9.2 | 0.675 | 2.4 | 7.1 | u
37 | Cc1nnc(NC(=O)C(C)Sc2nnc(CNC(=O)c3ccccc3F)n2C)s1 (centres undefined) | 0.4 | i | 4.3% | -5.0 | 10.2 | 0.66 | 0.5 | 5.8 | -4.1
38 | O=C(CSc1nnc(-c2ccncc2)n1-c1ccccc1)NC1CC1 | 2.0 | i | -2.2% | -1.9 | 17.4 | 0.73 | 0.5 | 12.9 | -9.1
39 | C=CCNC(=O)c1cc(Cl)ccn1 | 1.7 | i | -5.3% | -1.0 | 9.7 | 0.678 | -0.4 | 15.4 | x
40 | CS(=O)(=O)N1c2ccccc2[C@@]2(Br)C[C@H]3C(=O)N[C@@H](Cc4ccccc4)C(=O)N3[C@@H]12 | 0.6 | i | x | -3.8 | 1.0 | x | -2.4 | 2.3 | 6.4
41 | COc1cc(C2C(C#N)=C(N)Oc3cc(C)oc(=O)c32)cc2c1OCO2 (centres undefined) | x | x | 2.7% | x | x | 0.697 | 1.6 | x | -8.8
42 | CC(C)CNC(=O)c1coc(=O)c(Br)c1 | x | x | 12.1% | x | x | 0.661 | -0.6 | x | x
43 | C=CCNc1nnc(Cc2ccc(F)cc2)c(=O)[nH]1 | 1.0 | i | -5.9% | -0.3 | 11.3 | 0.702 | -1.7 | -1.2 | x
44 | COc1cccc(/C=C2\CCC(C3CCCC3)C2=O)c1 (centres undefined) | -3.3 | i | x | 4.1 | -2.1 | 0.699 | 1.5 | -1.4 | 7.9
45 | CC=Cc1ccc2n(c1=O)C[C@@H]1[C@@H](CO)[C@H](C(=O)NCC(F)(F)F)N(CC)[C@H]21 (mixture of isomers) | -2.1 | i | x | 1.0 | 9.2 | x | x | 2.9 | x
46 | CN(CC(=O)N1CCc2ccccc21)S(=O)(=O)c1ccc(Br)s1 | x | x | -1.4% | x | x | 0.743 | 0.3 | x | -2.3
47 | CCN(CC)S(=O)(=O)c1ccc(C)c(NC(=O)COC(=O)C=C(C)C)c1 | 2.8 | i | -11.4% | -3.8 | -1.1 | 0.664 | -0.9 | 1.2 | 0.0
48 | COc1ccc([C@H]2C[C@H](O)[C@@H](n3cc(C4CC4)nn3)CN2C(=O)c2cccs2)cc1 | -3.7 | i | x | -2.3 | 6.2 | x | 0.5 | 3.6 | x
49 | Cc1cccc2c(N=Nc3ccc(S(=O)(=O)Nc4cccc(Cl)c4)cc3[N+](=O)[O-])c(O)[nH]c12 | 1.3 | i | x | 0.9 | 23.1 | 0.665 | 1.6 | 6.5 | -48.3
50 | CN1CCN(C(=O)c2ccccc2NC(=O)c2ccccc2)CC1 | 6.2 | i | x | 1.7 | 17.4 | 0.715 | -0.4 | 17.5 | -0.1

Next entries:
entry | compound | rRNA inh HTS RFP | FGF22 binding | Vif TR-FRET | MLL AF4-AF9 inh | rRNA inh HTS OD600 | Ecoli growth | HNF4A DNA FP | rRNA inh HTS | ALR inh
51 | CC(=O)Nc1ccc(S(=O)(=O)Nc2cc(-c3ccccc3)nn2C)cc1 | -0.7 | i | -0.5% | 0.9 | 4.9 | 0.689 | -3.7 | 12.1 | -4.4
52 | Cc1ccc(S(=O)(=O)N2CCN(C(=O)COC(=O)/C=C/c3ccc(OC(F)F)cc3)CC2)cc1 | -1.3 | i | x | 4.6 | 12.9 | 0.669 | -2.5 | 5.9 | x
53 | CC1Cc2nc(SCC(=O)N3CCN(c4ccccc4)CC3)n(CCc3ccccc3)c(=O)c2S1 (centres undefined) | 10.8 | i | -3.6% | 1.7 | -4.1 | 0.753 | 5.2 | -5.7 | x
54 | CCOc1ccc(OCCC(=O)N(CC)CC(=O)NCc2ccc(Cl)cc2)cc1 | -2.1 | i | 6.0% | 2.1 | -15.6 | 0.613 | -4.5 | -9.7 | 1.1
55 | CC(=O)N(C(C)=O)c1nc2nc(C)cc(C)n2n1 | x | i | -1.5% | -11.7 | x | 0.697 | -1.4 | x | 1.4
56 | C[C@@H]1CN([C@@H](C)CO)C(=O)c2cc(NC(=O)CCC(F)(F)F)ccc2O[C@@H](C)CCCCO[C@@H]1CN(C)S(=O)(=O)c1ccccc1 | 1.0 | i | x | -2.6 | 0.2 | x | x | 0.7 | x
57 | CC(C)N1CCc2c(sc(NC(=O)c3cc4cc([N+](=O)[O-])ccc4s3)c2C(N)=O)C1 | -3.0 | i | 0.3% | 12.8 | -19.5 | 0.712 | 16.8 | -12.7 | x
58 | Cn1nc([N+](=O)[O-])nc1Oc1ccccc1C(=O)N1CCOCC1 | -3.3 | i | 0.2% | 0.2 | 5.2 | 0.633 | -3.6 | 7.0 | -19.1
59 | COc1cccc(CN(C)C[C@@H]2OCc3cn(nn3)CCCC(=O)N([C@H](C)CO)C[C@H]2C)c1 | -1.1 | i | x | -1.0 | 3.4 | x | x | 1.0 | x
60 | Cc1ccccc1S(=O)(=O)N1C[C@@H](O)COC[C@@H]2O[C@@H](CC(=O)NCCc3ccccc3)CC[C@H]21 | 14.8 | i | x | 15.0 | -37.0 | x | x | -25.6 | x

Bioassay records (PubChem)

The list is partial; rates above refer to the full screens.
